VACV mCherry inh = vaccinia inhibition (mCherry reporter). Vaccinia virus mCherry reporter infection, fluorescence; about a quarter of the inactives have no number. actives 0.63% (n = 310,000). Potency, µM (highest dose often 36.5 µM), inactives show at the highest dose activity change, negative = inhibition, actives largely listed as inhibitors; active = well fitted inhibition curve with a large enough effect; inconclusive = small, poorly fitted or top-dose-only effect; inactive = no such curve, though single readings can be large or run the other way; tested in A549 cells; note: nearly all actives have a fitted effect of over 35% in size; inactives centre near -10
VACV Venus inh = inhibitors of vaccinia virus (Venus reporter); actives 0.46% (n = 330,000); Vaccinia virus Venus reporter expression, fluorescence; AID 720580; Potency, µM (series often up to 36.5 µM), for the others: top-dose activity change, negative = inhibition, hits mostly inhibitors; active means well fitted inhibition curve with a large enough effect; inconclusive means small, poorly fitted or top-dose-only effect; inactive means no such curve, though single readings can be large or run the other way; tested in A549 cells; note: nearly all actives have a fitted effect of over 30% in size; inactives centre near -10
* hit, by the source's call; i = inactive; ? = inconclusive; · = not tested or not shown; & = joins results of further samples; [ ] = remark or other dose. % is set by controls: 0 for no effect and ±100 for the full control effect; potency is the fitted concentration of half-maximal effect. Rows were taken by chance. About 0.87% of those tested had a hit in this group.

Structure | VACV mCherry inh | VACV Venus inh
O=c1c2cn[nH]c2[nH]c(=S)n1-c1ccccc1Cl | -12% | -6%
O=C(NC1CCCC1)C(c1ccncc1)N(C(=O)c1ccco1)c1ccccc1 (centres undefined) | -8% | -5%
COc1ccc(NC(=O)COC(=O)C2CC(=O)N(Cc3ccc(C)cc3)C2)cc1 (centres undefined) | 4% | -3%
C=CC[C@H](CC(=O)N(CCO)Cc1ccccc1)C(=O)N[C@H](COC(=O)[C@@H](CC=C)CC(=O)OC(C)(C)C)c1ccccc1 | -10% | -28%
Cc1ccc(NC(=O)Cn2nnc(-c3nc(-c4ccncc4)no3)c2N)c(C)c1 | -10% | -16%
O=C1OCCC1Sc1ncnc2sc3c(c12)CCC3 (centres undefined) | -5% | 2%
COc1ccc(C2CC(=O)Oc3cc(O)cc(O)c32)cc1 (centres undefined) | i | 6%
CC(C)CC(=O)NC(=S)Nc1ccc(S(=O)(=O)NC(C)(C)C)cc1 | -28% | -18%
CC(C)(C)c1ccc(NC(=O)c2ccc3c(c2)S(=O)(=O)c2ccccc2C3=O)cc1 | i | -17%
CC(C)N1CC(COc2ccccc2Cl)OC1=O (centres undefined) | i[7.34 µM] | -16%[7.34 µM]
CNCCOc1nc(N2CCOCC2)nc(C)c1[N+](=O)[O-] | i | -13%
CCS(=O)(=O)c1ccc(OC)c(N=Nc2ccc(O)c3ncccc23)c1 | ? | -23%

Structure | VACV mCherry inh | VACV Venus inh
CSc1nc(Cc2ccccc2)cc(=O)[nH]1 | i | -9%
Cc1cc(C(=O)Nc2ccccc2-c2nc(CNC(=O)C3COc4ccccc4O3)c(C)o2)c(C)o1 (centres undefined) | -1% | 17%
COC(=O)c1ccc(NC(=O)C2CC(=O)OC2c2ccccc2)cc1 (centres undefined) | -13% | -9%
COc1ccc(/C(N)=N/OC(=O)c2ccc(Br)o2)cc1 | i | 3%
CCOCc1[nH]c(=S)[nH]c(=O)c1Cc1ccc(OC(C)C)cc1 | -6% | -14%
Cc1sc2c(c1C)c(=O)n(Cc1ccccc1)c(=O)n2Cc1ccc(F)cc1 | 0% | 1%
COc1cc(C(=O)Nc2nnc(C3CC3)s2)ccc1OCc1c(C)noc1C | -1% | -2%
Cc1ccc(S(=O)(=O)N2CCC(C(=O)N3CCC3)CC2)cc1 | -12% | -4%
CC(=O)NC(CC(=O)OCC(=O)c1c(N)n(C)c(=O)n(C)c1=O)c1ccccc1 (centres undefined) | 0% | -3%
Oc1ccc2ccccc2c1N=Nc1ccc(F)cc1 | -5% | 3%
CCc1ccc(S(=O)(=O)c2cn(C)c3cc(OC)c(OC)cc3c2=O)cc1 | -4%[7.34 µM] | 0%[7.34 µM]
CC(=O)OCC(=O)[C@@]1(O)CC[C@H]2[C@@H]3CCC4=CC(=O)CC[C@]4(C)[C@H]3[C@@H](O)C[C@@]21C | -1%&-23% | -16%&-15%

Structure | VACV mCherry inh | VACV Venus inh
O=C(O)c1ccc(COc2ccccc2/C=C2\NC(=O)N(Cc3ccc(F)cc3)C2=O)cc1 | i | -16%
CCC1CCCCN1S(=O)(=O)c1ccc(C(=O)Nc2nnc(-c3ccccc3Cl)o2)cc1 (centres undefined) | ? | -26%
O=C(OCCN1CCCCC1)C1(c2ccccc2)CCCC1 | -6% | -2%
N#Cc1cc([N+](=O)[O-])ccc1NC(=O)COC(=O)C1CCC(=O)N1 (centres undefined) | i | -7%
COc1cccc(CNC(=O)CCN2C(=O)[C@@H]3Cc4ccccc4CN3C2=O)c1 | 37%[activator][7.34 µM] | 34%[activator][7.34 µM]
O=C(CCS(=O)(=O)c1cc2c(cc1Cl)NC(=O)CO2)NCCc1ccc(Cl)cc1 | -4% | 0%
c1cncc(-c2nc(NCC3CCCO3)c3ccccc3n2)c1 (centres undefined) | i | -2%
COc1ccc(Cl)cc1C(=O)Nc1ccc2c(c1)OCO2 | -11% | 2%
COc1ccc(-c2cc(C)nc(SCc3cccc(C(=O)O)c3)n2)cc1 | -15% | 4%
CC1(C)CC(=O)C2=C(C1)N(c1ccccc1)C(N)=C(C#N)C2c1ccsc1 (centres undefined) | · | -5%
c1coc(CSCc2cn3cccnc3n2)c1 | i | -8%
COc1ccc(-n2ccn3c(CC(C)(C)CC(=O)O)nnc3c2=O)cc1 | 1% | 5%

Next part, starting with the last 2 of the part before.
Structure | VACV mCherry inh | VACV Venus inh
c1coc(CSCc2cn3cccnc3n2)c1 | i | -8%
COc1ccc(-n2ccn3c(CC(C)(C)CC(=O)O)nnc3c2=O)cc1 | 1% | 5%
COc1ccc(-c2c(-c3cc(OC)cc(OC)c3)n(C)c3ccc(-c4cccc5[nH]ccc45)cc23)cc1 | ? | -16%
CC(C)N(C(=O)[C@H]1C[C@H](CC(=O)NCCCn2ccnc2)C(=O)N2CCc3c([nH]c4cc(-c5ccco5)ccc34)[C@]12C)C(C)C | i | 2%
O=C1NCCOC(=O)[C@H](Cc2ccc(F)cc2)C/C=C\C[C@H]1CC(=O)N(CCO)Cc1ccccc1 | -28% | -26%
Cn1cnc2c(NCc3ccccc3)nc(NCCO)nc21 | -20%[60.7 µM] | -8%[60.7 µM]
CN(CC(=O)Nc1ccc(F)cc1)S(=O)(=O)c1ccc2c(c1)c(=O)n(C)c(=O)n2C | i | -13%
CCn1cc(C(=O)N2CCCC(C(=O)c3ccc4ccccc4c3)C2)cn1 (centres undefined) | -5% | -22%
COC(=O)c1cc2sccc2n1Cc1nc(-c2cccc(Br)c2)oc1C | i | -6%
Cc1sc2ncn(CC(=O)NCCCC(=O)N3CCN(Cc4ccc5c(c4)OCO5)CC3)c(=O)c2c1C | -6% | -11%
O=C(OCC1OC(n2ccc(=O)[nH]c2=O)C(Cl)C1O)c1ccccc1 (centres undefined) | -13% | 0%
CN(CCCn1cnc2c(OCc3ccccc3)ncnc21)Cc1ccco1 | -16% | -18%
O=C(N1CCOCC1)N(Cc1ccccc1)c1ccccn1 | -4% | -8%
Cc1ccc(C(=O)CSc2nccn2-c2ccccc2)cc1 | -19% | -11%

Structure | VACV mCherry inh | VACV Venus inh
CCOC(=O)c1cc(C)n(CC2CCC(C(=O)Nc3ccc(C(C)=O)cc3)CC2)c1C (centres undefined) | -12% | -12%
CCCCNC(=O)C1(C)CCCCN1C(=O)c1ccno1 (centres undefined) | 35%[activator] | -12%
CCN1CC2=C(OC(N)=C(C#N)C2c2cccs2)/C(=C\c2cccs2)C1 (centres undefined) | -4% | -10%
CC(C)n1c(O)c(N=NC(=O)Cn2ccc(C(F)(F)F)n2)c2ccccc21 | -15% | -24%
c1cncc(CNc2ccc3c(c2)OCO3)c1 | · | -20%
CC(=O)Nc1cc(-c2ccc(N(C)C)cc2)cn2c(-c3ccc(F)cc3)cnc12 | i | 0%
COc1cccc(COCCN2CCN(S(=O)(=O)c3ccc(C)cc3)CCC2=O)c1 | -23% | -25%
O=C(Nc1ccccc1C(F)(F)F)c1cc(-c2ccc3c(c2)OCCO3)on1 | -11% | 1%
Cc1ccc(NC(=O)NCCCN2CCOCC2)cc1 | · | 4%
COc1ccc(S(=O)(=O)NCC(=O)NCc2cc(=O)n(C)c(=O)n2C)cc1F | i[7.34 µM] | 0%[7.34 µM]
CC1Cn2c(nnc2-c2cc3ccccc3cc2O)S1 (centres undefined) | -12% | -17%
COc1cc(C)c(/C=C(\C#N)C(=O)Nc2cccc(C)c2)cc1C(C)C | -9% | -6%

Compound profiles, as listed above. Order of screens: VACV mCherry inh, VACV Venus inh
Entry for CC1Cn2c(nnc2-c2cc3ccccc3cc2O)S1 (centres undefined) = -12%, -17%
Entry for c1cncc(CNc2ccc3c(c2)OCO3)c1 = ·, -20%
Entry for CCN1CC2=C(OC(N)=C(C#N)C2c2cccs2)/C(=C\c2cccs2)C1 (centres undefined) = -4%, -10%

Later entries.
Structure | VACV mCherry inh | VACV Venus inh
O/N=C1\CCC2CN(C3CCCCC3)CC2C1 (centres undefined) | · | 0%
Cc1cc(=O)c(C(=O)O)cn1-c1ccc(C(C)C)cc1 | i | -7%
Cc1ccc(Cc2c(-c3ccc(Cl)cc3)nc3cc(C)c(Br)c(C)n23)cc1 | 11% | -3%
CCOC(=O)c1c(NC(=O)CSc2n[nH]c(-c3ccco3)n2)sc(C)c1C | -16% | -16%
CCc1ccccc1S(=O)(=O)Cc1ccc(C(=O)NC(C)C)o1 | -5% | -4%
COc1ccc(/C([O-])=C(/C(=S)Nc2ccc(C)c(C)c2)n2c[n+](C)c3ccccc32)cc1OC | i | -9%
Cc1ccc(N2CCN(c3ccc(C)cc3)C2c2ccncc2)cc1 | i | -12%
COc1cc(C)nc(NS(=O)(=O)c2ccccc2Cl)n1 | -14% | -2%
COc1ccc(CCC(=O)c2c(O)cc(OC3OC(CO)C(O)C(O)C3O[C@@H]3OC(C)C(O)C(O)C3O)cc2O)cc1O (some centres undefined) | -16% | -12%
CN1C(=O)C(=Cc2cc([N+](=O)[O-])ccc2N2CCCCC2)C(=O)N(C)C1=O | -1% | 1%
CNCc1cc(Cl)cc(OC)c1OC(C)C | -8% | -11%
Cc1ccc(C(=O)CSc2nnc(-c3ccco3)o2)o1 | ? | 10µM*

Structure | VACV mCherry inh | VACV Venus inh
Cc1cccc(C)c1NC(=O)CNC(=O)CNC(=O)c1ccc2ccccc2c1 | -27% | -15%
CC(C)(C)OC(=O)C[C@@H]1C/C=C\C[C@@H](CC(=O)N(CCO)Cc2ccccc2)C(=O)NCCOC1=O | i | -15%
COc1ccc(C(=O)O)cc1S(=O)(=O)Nc1cccc(C)c1 | -15% | ?
O=C(CCNC(=O)Cn1cnc2ccccc2c1=O)NCC1COc2ccccc2O1 (centres undefined) | -16% | -6%
CCOc1ccccc1CNS(=O)(=O)c1ccc2c(c1)C(C)(C)C(=O)N2C | -11% | -13%
COCCC1CCCCN1C(=O)c1cc(COc2ccc(-n3cncn3)cc2)on1 (centres undefined) | -20% | -21%
COC(=O)C[C@@H]1C=C[C@H](NC(=O)Nc2ccc(F)cc2)[C@@H](CO)O1 | 2% | -7%
CN(C)CC(C)(C)CNC(=S)Nc1ccc(S(=O)(=O)N2CCOCC2)cc1 | -10% | 1%
Cc1cccc(NC(=O)c2c([N+](=O)[O-])c(C(C)(C)C)nn2C)c1 | -22% | -17%
O=C(Cn1cnc2c(nnn2-c2cccc(Cl)c2)c1=O)NCc1ccccc1 | -26% | -7%
O=C(NC(=S)Nc1cccc(Cl)c1N1CCCCC1)c1ccc2c(c1)OCCO2 | i | -11%
CN1CCc2nc(SCC(=O)OC(C)(C)C)c(C#N)cc2C1 | ? | -18%

Structure | VACV mCherry inh | VACV Venus inh
Cc1ccc(C(=O)NCC(c2cccs2)S(=O)(=O)c2cccs2)cc1C (centres undefined) | -16% | -3%
COc1ccc(C(=O)NNC(=O)C(=O)NCc2ccccc2)cc1 | -7% | -9%
O=C(CSc1ccccc1C(=O)NCCCN1CCCC1=O)NCc1ccco1 | · | 2%
COc1ccc(C(CNC(=O)c2ccc(Cl)s2)N2CCOCC2)cc1 (centres undefined) | i | -4%
CCCCCC(=O)NC(NC(=S)N1CCOCC1)C(Cl)(Cl)Cl (centres undefined) | i | -13%
O=C(CCc1ccccc1)N1CCN(c2ccc(Cl)cc2)CC1 | i | -8%
O=C(COC(=O)c1ccccc1NS(=O)(=O)c1cccs1)NC1CCCCC1 | -17% | -8%
CCN(CC)C(=S)SCC(=O)Nc1ncc2c(n1)CCCC2=O | -3%[7.34 µM] | 2%[7.34 µM]
COCc1cc(C)nc2sc3c(c12)NC(c1ccc(O)cc1)N(c1ccc(C)cc1)C3=O (centres undefined) | -1%[7.34 µM] | -7%[7.34 µM]
O=C(NCCc1ccco1)c1cc(COc2cccc(C(F)(F)F)c2)on1 | -18% | -1%
CCOC(=O)CSc1nc2c(sc(=S)n2-c2ccccc2)c(=O)[nH]1 | i | -9%
CC(C)(C)c1ccc(OCC(=O)N2CCC(c3nc4ccccc4s3)CC2)cc1 | -10% | -6%

Structure | VACV mCherry inh | VACV Venus inh
Cc1ccc(C)c(-n2c(SCC(=O)Nc3nnc(C)s3)nnc2-c2ccoc2C)c1 | -2% | -5%
Cc1ccc(NC(=O)c2ccc(S(=O)(=O)NCc3ccco3)cc2)cc1 | -10% | -3%
O=C(O)c1ccc(Nc2ccc([N+](=O)[O-])c3nonc23)cc1 | i | 1%
COCCN(C(=O)CNC(=O)c1ccco1)C(C(=O)NC1CCCC1)c1ccc(OC)cc1 (centres undefined) | 2% | 8%
Cc1c(C(=O)NCCCc2ccncc2)cnn1-c1ncc2c(n1)-c1ccccc1CC2 | -2% | ?
CCN1CCN(S(=O)(=O)c2ccc(Cl)c(C(=O)N(C)CCOc3ccc(Cl)cc3)c2)CC1 | -11% | ?
CC(C)CNC(=O)c1nn(Cc2ccccc2)c(=O)c2ccccc12 | -12% | -11%
O=C(/C=C/c1cccnc1)c1ccc([N+](=O)[O-])cc1 | ? | -25%
CSC1=NC2(CCCCC2)C2=C(CCCC2)N1 | -20% | -16%
COc1ccc(NC(=O)CC(C)S(=O)(=O)c2cc3c(cc2C)NC(=O)CO3)cc1OC (centres undefined) | -8% | -2%
COc1ccc(C)cc1NC(=O)CSc1nc2ccccc2nc1N1CCCCC1 | -5% | -1%

Assay outcomes (PubChem)
